High-throughput results deposited in PubChem by several laboratories.
Dyrk1A ADPGlo = rat Dyrk1A kinase inhibitors, primary screen, biochemical, single point, plate reader; inhibition, % at 12.5 µM; Dual specificity tyrosine-phosphorylation-regulated kinase 1A (Rattus norvegicus), Q63470; 310,000 compounds, 0.43% hits; ADP-Glo luminescence, NFATc1 peptide; in the data active = inhibition above about 50%;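 note: plate controls were vehicle with enzyme for no effect and no enzyme for full effect; many of its hits are not listed in these tables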
HSP90 refold inh = HSP90 inhibitors, primary screen, cell lysate, luminescence | 290,000 compounds, 0.91% hits | inhibition, % at 5.6 µM | Rabbit reticulocyte lysate, luciferase refolding luminescence, 3 h | Heat shock protein HSP 90 (rabbit reticulocyte lysate; luciferase refolding);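 active = inhibition above the screen-wide mean plus 3 SD, computed separately per campaign, cut at about 16% in these data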;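 note: 0% = DMSO wells and 100% = 60 µM geldanamycin wells; inhibitors lower the luminescence because luciferase stays unfolded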
HDAC3 inhib = HDAC3 deacetylase inhibitors, primary screen, biochemical, fluorescence, cell-free homogeneous; recombinant HDAC3, fluorogenic peptide/trypsin coupled; inhibition, % at 8.3 µM; 320,000 compounds, 0.15% hits; in the data active = inhibition above about 26%, passing the limit was not always enough; inconclusive = no clear call, values can overlap the other calls
Target sequence (O15379 whole entry, looked up): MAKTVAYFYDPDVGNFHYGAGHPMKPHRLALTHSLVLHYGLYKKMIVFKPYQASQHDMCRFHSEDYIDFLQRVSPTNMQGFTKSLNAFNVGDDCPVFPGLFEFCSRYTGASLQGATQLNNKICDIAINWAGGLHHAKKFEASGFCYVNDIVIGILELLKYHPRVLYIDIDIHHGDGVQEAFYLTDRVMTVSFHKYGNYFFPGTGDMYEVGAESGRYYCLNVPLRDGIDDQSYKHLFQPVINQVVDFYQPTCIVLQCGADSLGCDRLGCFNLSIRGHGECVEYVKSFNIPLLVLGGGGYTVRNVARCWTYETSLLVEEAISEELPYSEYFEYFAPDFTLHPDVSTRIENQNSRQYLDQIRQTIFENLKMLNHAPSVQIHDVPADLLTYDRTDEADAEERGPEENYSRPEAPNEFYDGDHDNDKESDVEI
PolyA inh = polyadenylation inhibitors in yeast reporter cells, primary screen, luminescence, S. cerevisiae | S. cerevisiae SKY197-pL101 polyadenylation reporter, beta-gal luminescence; efflux-impaired pdr1/pdr3 knockout yeast; score 100 = 6 SD above DMSO | calls only at 12 µM | 300,000 compounds, 0.02% hits;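 active = lowest replicate activity score at least 50, where 100 means six control SD above control mean; inconclusive = lowest score under 50 but half or more replicates reach 50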;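 note: yeast exposed to compound for 9 h at 30 °C; higher score means more reporter readthrough which indicates perturbed polyadenylation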
Platelet DG rel = inhibitors of platelet dense granule secretion, primary screen, cell-based, MLPCN, human platelets; human platelet-rich plasma, SFLLRN dense granule ATP release, luminescence; inhibition, %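 (compounds screened at 7.5 µM in platelet-rich plasma)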; 300,000 compounds, 0.22% hits; AID 1663, 2009;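 active = mean replicate score, as percent of positive control, at or above 50; inconclusive = mean below 50 but at least one replicate at or above 50; inactive = mean and every replicate below 50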
Starred values were filed as active, the others as inactive; i = inactive; ? = inconclusive; . = not tested or not shown; & = joins results of further samples. Not all compounds are listed; the hit share may differ from the screen's.

The line under a structure holds: Dyrk1A ADPGlo	HSP90 refold inh	HDAC3 inhib	PolyA inh	Platelet DG rel
1: O=C1Nc2ccccc2Nc2ccccc21
    2	-2	6	i	4
2: CC(C)(C)n1nc(-c2ccc(Cl)cc2)c2c(N)ncnc21
    7	1	5	i	72*
3: Cn1cc(C2=C(c3ccc(Cl)cc3Cl)C(=O)NC2=O)c2ccccc21
    38	-3	3	i	-1
4: COc1cc(OC)c(/C=C2\C(=O)Nc3ccccc32)c(OC)c1
    .	.	3	.	.
5: OCCCNc1cc(-c2ccnc(Nc3cccc(Cl)c3)n2)ccn1
    89*	.	-10	i	4
6: Cc1nc(COc2ccccc2Cl)sc1-c1ccnc(N)n1
    79*	-2	-6	i	2
7: Cc1ncc(C[n+]2csc(CCO)c2C)c(N)n1
    -3&-2	-4	-2&2	i	15&-3
8: Clc1ccc(CNc2ccc3nnc(-c4ccccc4)n3n2)cc1
    5	-1	1	i	?
9: Cn1cnc([N+](=O)[O-])c1Sc1ncnc2nc[nH]c12
    -1	1	12	i	-1
10: Cc1ccc(Nc2nc(N)c([N+](=O)[O-])c(NCCO)n2)cc1
    .	3	9	i	-13
11: O=C1C=CC(=O)N1
    3	.	3	.	.

Three entries out of the list, arranged by heavy-atom count, falling:
The line under a structure holds: Dyrk1A ADPGlo	HSP90 refold inh	HDAC3 inhib	PolyA inh	Platelet DG rel
3: Cn1cc(C2=C(c3ccc(Cl)cc3Cl)C(=O)NC2=O)c2ccccc21
    38	-3	3	i	-1
10: Cc1ccc(Nc2nc(N)c([N+](=O)[O-])c(NCCO)n2)cc1
    .	3	9	i	-13
1: O=C1Nc2ccccc2Nc2ccccc21
    2	-2	6	i	4

Single records, as listed above:
O=C1C=CC(=O)N1 reads Dyrk1A ADPGlo: 3; HSP90 refold inh: .; HDAC3 inhib: 3; PolyA inh: .; Platelet DG rel: .
Clc1ccc(CNc2ccc3nnc(-c4ccccc4)n3n2)cc1 reads Dyrk1A ADPGlo: 5; HSP90 refold inh: -1; HDAC3 inhib: 1; PolyA inh: i; Platelet DG rel: ?
Cc1ccc(Nc2nc(N)c([N+](=O)[O-])c(NCCO)n2)cc1 reads Dyrk1A ADPGlo: .; HSP90 refold inh: 3; HDAC3 inhib: 9; PolyA inh: i; Platelet DG rel: -13
